# UUG fidelity – modulators of yeast start codon fidelity, primary screen, whole organism, S. cerevisiae, single point, plate reader; S. cerevisiae UUG-firefly luciferase reporter, luminescence/redox ratio; activity score, % at 18.7 µM; actives 0.13% (n = 350,000);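 active = replicate mean at a twofold rise or more, about +100% in these data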;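 also: firefly luciferase made from a UUG start codon reports start codon fidelity; reporter light over untreated wells divided by growth signal over untreated wells; some hits fall short of that in this replicate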
# Env fusion inh – inhibitors of HIV-1 Env-driven cell-cell fusion, primary screen, HeLa-JRFL effector, CEM21 target cells, luciferase; AID 651610, 2012; inhibition, % at 12.3 µM; actives 1.1% (n = 360,000);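 active = mean replicate inhibition score of at least 50 and every replicate individually at or above 50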;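 also: 0% = plate neutral controls and 100% = maraviroc near 300 nM; one replicate is shown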
# Numbers without * were called inactive; [ ] = dose if it differs, or a comment.
SMILES,UUG fidelity,Env fusion inh
COc1ccc(S(=O)(=O)Nc2ccc3c(c2)C(=O)N([C@H](C)CO)C[C@H](C)[C@@H](CN(C)C(=O)CCC(F)(F)F)OCCCC[C@@H](C)O3)cc1,0,-41[16.7 µM]
C[C@@H]1CN([C@H](C)CO)C(=O)c2cc(NC(=O)Nc3ccc(C(F)(F)F)cc3)ccc2O[C@@H]1CN(C)Cc1ccc(-c2ccccc2)cc1,0,-7[16.7 µM]
O=C(Nc1ccc2c(c1)[C@@H]1C[C@@H](CC(=O)N3CCCCC3)O[C@@H](CO)[C@@H]1O2)Nc1ccccc1F,0,-21[16.7 µM]
C[C@@H]1CN([C@H](C)CO)C(=O)c2cc(NC(=O)Nc3ccc4c(c3)OCO4)ccc2O[C@@H]1CN(C)Cc1ccc(C(=O)Nc2ccccc2N)cc1,10,22[16.7 µM]
C[C@@H]1CN([C@H](C)CO)C(=O)c2cc(NC(=O)NC3CCCCC3)ccc2O[C@@H](C)CCCCO[C@H]1CN(C)C(=O)CCC(F)(F)F,24,8[16.7 µM]
CCNC(=O)C[C@@H]1CC[C@@H]2[C@H](COc3ccc(NC(=O)Nc4cccc(F)c4)cc3C(=O)N2C)O1,3,18[16.7 µM]
COc1ccc(NC(=O)N[C@H]2CC[C@H](CCNC(=O)Cc3ccncc3)O[C@@H]2CO)cc1,3,7[16.7 µM]
C[C@@H]1CCCCO[C@@H](CN(C)S(=O)(=O)c2ccccc2)[C@H](C)CN([C@H](C)CO)C(=O)c2cc(NS(=O)(=O)c3cn(C)cn3)ccc2O1,-8,15[16.7 µM]
CCCC#Cc1cnc2c(c1)C(=O)N([C@@H](C)CO)C[C@@H](C)[C@H](CN(C)S(C)(=O)=O)O2,3,-4[16.7 µM]
Cc1ccc(-c2cnc3c(c2)C(=O)N([C@@H](C)CO)C[C@@H](C)[C@@H](CN(C)C(=O)c2cccc(F)c2)O3)cc1,6,10[16.7 µM]
CCC(=O)Nc1ccc2c(c1)C(=O)N(C)[C@H]1CC[C@H](CC(=O)N[C@@H](C)c3ccccc3)O[C@H]1CO2,-5,4[16.7 µM]
COc1ccc(NC(=O)N(C)C[C@@H]2OCCCC[C@H](C)Oc3ccc(NC(=O)Nc4ccc(C(F)(F)F)cc4)cc3C(=O)N([C@@H](C)CO)C[C@@H]2C)cc1,-2,-2[16.7 µM]
CO[C@H]1CN(C)C(=O)c2ccc(NS(=O)(=O)c3ccc(Cl)cc3)cc2OC[C@H](C)N(C)C[C@H]1C,0,-3[16.7 µM]
O=C(C[C@H]1C=C[C@H](NC(=O)Nc2ccccc2F)[C@@H](CO)O1)NCc1ccc(F)cc1,-11,0[16.7 µM]
C[C@H]1CN([C@@H](C)CO)C(=O)c2cccc(NC(=O)C3CCCCC3)c2O[C@H]1CN(C)CC1CC1,-4,13[16.7 µM]
COc1ccc(S(=O)(=O)N(C)C[C@H]2Oc3c(NS(=O)(=O)c4ccccc4)cccc3C(=O)N([C@@H](C)CO)C[C@H]2C)cc1,-2,-8[16.7 µM]
C[C@H]1CN([C@@H](C)CO)C(=O)Cc2cc(NC(=O)Cc3cn(C)c4ccccc34)ccc2O[C@@H]1CN(C)Cc1ccccc1,-2,-1[16.7 µM]
C[C@H](NC(=O)C[C@@H]1CC[C@H](NC(=O)C2CCOCC2)[C@H](CO)O1)c1ccccc1,-3,5[16.7 µM]
C[C@H](CO)N1C[C@H](C)[C@H](CN(C)Cc2ccc3c(c2)OCO3)Oc2c(NC(=O)C3CC3)cccc2C1=O,11,2[16.7 µM]
O=C(Cc1cccnc1)N[C@H]1CC[C@H](CCn2cc(-c3ccccc3F)nn2)O[C@H]1CO,-14,6[16.7 µM]
C[C@@H]1CN([C@H](C)CO)C(=O)c2cccc(NC(=O)c3ccc(-c4nccs4)cc3)c2O[C@@H]1CN(C)S(=O)(=O)c1ccc(Cl)cc1,-10,-8[16.7 µM]
O=C(C[C@@H]1CC[C@@H](NC(=O)Nc2cccc(F)c2)[C@H](CO)O1)NCC1CCCCC1,-10,-7[16.7 µM]
COc1ccc(S(=O)(=O)Nc2ccc3c(c2)C(=O)N([C@@H](C)CO)C[C@H](C)[C@H](CN(C)S(C)(=O)=O)OCCCC[C@@H](C)O3)cc1,30,-11[16.7 µM]
C[C@H]1CN([C@@H](C)CO)S(=O)(=O)c2ccc(C#CC3(O)CCCC3)cc2O[C@H]1CN(C)C(=O)Cc1ccccc1,15,-46[16.7 µM]
O=C(CC1CC1)N[C@@H]1CC[C@H](CCNS(=O)(=O)c2ccc(F)cc2)O[C@H]1CO,0,-6[16.7 µM]
C[C@@H]1CN([C@@H](C)CO)S(=O)(=O)c2ccc(C#CCN(C)C)cc2O[C@@H]1CN(C)S(C)(=O)=O,31,0[16.7 µM]
C[C@H]1CN([C@@H](C)CO)C(=O)c2cc(NS(=O)(=O)c3ccc(F)cc3)ccc2O[C@@H]1CN(C)C(=O)Nc1ccc(F)cc1,11,10[16.7 µM]
C[C@H](CO)N1C[C@H](C)[C@H](CN(C)CC2CC2)Oc2ccc(NC(=O)C3CCCCC3)cc2CC1=O,2,16[16.7 µM]
CCCC#Cc1ccc([C@@H]2[C@@H](C#N)N(C(=O)C3CCCCC3)[C@@H]2CO)cc1,1,-3[16.7 µM]
CN(C)C(=O)C[C@@H]1CC[C@@H](NS(=O)(=O)c2ccccc2)[C@H](CO)O1,-8,7[16.7 µM]
CC(C)C#Cc1ccc2c(c1)O[C@@H](CN(C)C(=O)C1CCCCC1)[C@@H](C)CN([C@@H](C)CO)S2(=O)=O,15,30[16.7 µM]
CN1CCN(C(=O)C[C@H]2CC[C@@H]3[C@H](COC[C@@H](O)CN3Cc3cccc(F)c3)O2)CC1,5,-4[16.7 µM]
C[C@@H]1CCCCO[C@H](CN(C)C(=O)CCC(F)(F)F)[C@H](C)CN([C@H](C)CO)C(=O)c2cc(NC(=O)NC3CCCCC3)ccc2O1,28,21[16.7 µM]
CC(C)CC#Cc1cnc2c(c1)C(=O)N([C@@H](C)CO)C[C@@H](C)[C@H](CN(C)S(=O)(=O)c1cn(C)cn1)O2,-4,18[16.7 µM]
C[C@H]1CN([C@@H](C)CO)C(=O)Cc2cc(NC(=O)c3ccncc3)ccc2O[C@H]1CN(C)C(=O)Nc1ccc2c(c1)OCO2,-6,-3[16.7 µM]
C[C@@H]1CN([C@@H](C)CO)C(=O)c2cc(-c3ccncc3)cnc2O[C@@H]1CN(C)C(=O)c1cccc(F)c1,8,4[16.7 µM]
COc1ccc(NC(=O)Nc2cccc3c2O[C@@H](CN(C)Cc2ccc(-c4ccccc4)cc2)[C@H](C)CN([C@@H](C)CO)C3=O)cc1,6,6[16.7 µM]
CCC(=O)Nc1ccc2c(c1)C(=O)N(C)C[C@@H](OC)[C@@H](C)CN(Cc1ccccc1OC)[C@H](C)CO2,-2,-3[16.7 µM]
C[C@@H]1CN([C@H](C)CO)C(=O)Cc2cc(NS(=O)(=O)c3cn(C)cn3)ccc2O[C@H]1CN(C)C(=O)Nc1cccc2ccccc12,-6,4[16.7 µM]
C[C@H](CO)N1C[C@H](C)[C@@H](CN(C)C(=O)Nc2cccc3ccccc23)Oc2c(NC(=O)Nc3ccc(C(F)(F)F)cc3)cccc2C1=O,-2,20[16.7 µM]
C[C@@H]1CN([C@H](C)CO)C(=O)c2cc(C3=CCCC3)cnc2O[C@@H]1CN(C)C(=O)c1ccc(F)cc1,-3,-27[16.7 µM]
COc1cccc(C#Cc2ccc3c(c2)O[C@@H](CN(C)C(=O)CN2CCOCC2)[C@@H](C)CN([C@@H](C)CO)S3(=O)=O)c1,14,-20[16.7 µM]
CCCC(=O)Nc1ccc2c(c1)C(=O)N(C)C[C@H](OC)[C@@H](C)CN(C(C)=O)[C@H](C)CO2,7,-8[16.7 µM]
COCC(=O)N(C)C[C@H]1Oc2cc(C#C[C@@H](C)O)ccc2S(=O)(=O)N([C@@H](C)CO)C[C@H]1C,5,-10[16.7 µM]
C[C@@H]1CN([C@@H](C)CO)S(=O)(=O)c2ccc(C3=CCCCC3)cc2O[C@H]1CN(C)C(=O)C1CCCCC1,7,32[16.7 µM]
CC(C)NC(=O)Nc1ccc2c(c1)CC(=O)N([C@H](C)CO)C[C@@H](C)[C@@H](CN(C)C(=O)Nc1ccc(F)cc1)O2,26,18[16.7 µM]
C[C@H](CO)N1C[C@H](C)[C@H](CN(C)C(=O)Cc2cccnc2)Oc2ncc(C#CCc3ccccc3)cc2C1=O,10,-1[16.7 µM]
C[C@@H]1CN([C@@H](C)CO)C(=O)c2cc(C#CC3(O)CCCC3)cnc2O[C@@H]1CN(C)C(=O)CN(C)C,7,-7[16.7 µM]
C[C@@H]1CCCCO[C@H](CN(C)C(=O)CCCN(C)C)[C@@H](C)CN([C@H](C)CO)C(=O)c2cc(NC(=O)Cc3ccccc3)ccc2O1,32,5[16.7 µM]
COCC(=O)N(C)C[C@H]1Oc2cc(C#CCC3CCCC3)ccc2S(=O)(=O)N([C@H](C)CO)C[C@H]1C,13,4[16.7 µM]

# Carrying on.
SMILES,UUG fidelity,Env fusion inh
C[C@H](CO)N1C[C@H](C)[C@H](CN(C)Cc2ccc(C(F)(F)F)cc2)Oc2c(NS(=O)(=O)c3ccc(Cl)cc3)cccc2C1=O,-2,-51[16.7 µM]
CCS(=O)(=O)Nc1ccc2c(c1)C(=O)N(C)C[C@@H](OC)[C@H](C)CN(C(C)=O)[C@@H](C)CO2,-18,2[16.7 µM]
CN1C(=O)c2cc(NC(=O)Cc3cccs3)ccc2OC[C@H]2O[C@H](CC(=O)NCC3CC3)CC[C@@H]21,14,-2[16.7 µM]
C[C@@H]1CN([C@@H](C)CO)C(=O)c2cc(/C=C/c3ccccc3)cnc2O[C@H]1CN(C)C(=O)C1CCCCC1,7,-1[16.7 µM]
C[C@H](CO)N1C[C@H](C)[C@H](CN(C)S(=O)(=O)c2ccc(Cl)cc2)Oc2ccc(NS(=O)(=O)c3ccc(Cl)cc3)cc2CC1=O,-5,40[16.7 µM]
C[C@@H]1CN([C@H](C)CO)C(=O)c2cc(NC(=O)CCC(F)(F)F)ccc2O[C@@H](C)CCCCO[C@@H]1CN(C)S(C)(=O)=O,-3,2[16.7 µM]
O=C(CCN1CCCCC1)N[C@H]1CC[C@@H](CCNC(=O)c2cc(Cl)cc(Cl)c2)O[C@@H]1CO,4,-12[16.7 µM]
O=C(C[C@@H]1C[C@@H]2c3cc(NC(=O)c4ccc5c(c4)OCO5)ccc3O[C@@H]2[C@H](CO)O1)NCc1ccc(Cl)cc1,-22,-2[16.7 µM]
CCCC(=O)Nc1ccc2c(c1)OC[C@@H](C)N(C(=O)CC1CC1)C[C@H](C)[C@H](OC)CN(C)C2=O,-6,-1[16.7 µM]
C[C@@H]1CN([C@H](C)CO)C(=O)c2cc(NC(=O)Nc3ccc(C(F)(F)F)cc3)ccc2O[C@@H](C)CCCCO[C@@H]1CN(C)C(=O)CCCN(C)C,32,6[16.7 µM]

# Taken from the results shown (8 entries):
SMILES,UUG fidelity,Env fusion inh
CN1C(=O)c2cc(NC(=O)Cc3cccs3)ccc2OC[C@H]2O[C@H](CC(=O)NCC3CC3)CC[C@@H]21,14,-2[16.7 µM]
C[C@@H]1CN([C@@H](C)CO)C(=O)c2cc(/C=C/c3ccccc3)cnc2O[C@H]1CN(C)C(=O)C1CCCCC1,7,-1[16.7 µM]
C[C@H](CO)N1C[C@H](C)[C@H](CN(C)S(=O)(=O)c2ccc(Cl)cc2)Oc2ccc(NS(=O)(=O)c3ccc(Cl)cc3)cc2CC1=O,-5,40[16.7 µM]
C[C@@H]1CN([C@H](C)CO)C(=O)c2cc(NC(=O)CCC(F)(F)F)ccc2O[C@@H](C)CCCCO[C@@H]1CN(C)S(C)(=O)=O,-3,2[16.7 µM]
O=C(CCN1CCCCC1)N[C@H]1CC[C@@H](CCNC(=O)c2cc(Cl)cc(Cl)c2)O[C@@H]1CO,4,-12[16.7 µM]
O=C(C[C@@H]1C[C@@H]2c3cc(NC(=O)c4ccc5c(c4)OCO5)ccc3O[C@@H]2[C@H](CO)O1)NCc1ccc(Cl)cc1,-22,-2[16.7 µM]
CCCC(=O)Nc1ccc2c(c1)OC[C@@H](C)N(C(=O)CC1CC1)C[C@H](C)[C@H](OC)CN(C)C2=O,-6,-1[16.7 µM]
C[C@@H]1CN([C@H](C)CO)C(=O)c2cc(NC(=O)Nc3ccc(C(F)(F)F)cc3)ccc2O[C@@H](C)CCCCO[C@@H]1CN(C)C(=O)CCCN(C)C,32,6[16.7 µM]

# Further records:
SMILES,UUG fidelity,Env fusion inh
C[C@@H]1CN([C@H](C)CO)C(=O)Cc2cc(NS(C)(=O)=O)ccc2O[C@@H]1CN(C)Cc1ccc(C(=O)Nc2ccccc2N)cc1,-3,11[16.7 µM]
COc1ccc(NC(=O)Nc2ccc3c(c2)C(=O)N([C@@H](C)CO)C[C@@H](C)[C@H](CN(C)C(=O)Nc2ccccc2)O3)cc1,11,9[16.7 µM]
Cc1noc(C)c1NC(=O)N(C)C[C@@H]1Oc2ccc(NS(=O)(=O)c3ccccc3)cc2CC(=O)N([C@H](C)CO)C[C@H]1C,5,-40[16.7 µM]
C[C@H]1CN([C@@H](C)CO)C(=O)c2cc(C#Cc3ccccn3)cnc2O[C@@H]1CN(C)Cc1ccncc1,-14,4[16.7 µM]
C[C@@H]1CN([C@@H](C)CO)C(=O)c2cc(NC(=O)CCC(F)(F)F)ccc2O[C@@H](C)CCCCO[C@H]1CN(C)C(=O)Nc1ccccc1,2,14[16.7 µM]
C[C@H]1CN([C@@H](C)CO)C(=O)c2cccc(NC(=O)C3CC3)c2O[C@@H]1CN(C)C(=O)NC1CCCCC1,1,8[16.7 µM]
C[C@@H]1CN([C@@H](C)CO)C(=O)c2cc(-c3ccc(F)cc3)cnc2O[C@@H]1CN(C)Cc1ccc(C(=O)O)cc1,-21,-14[16.7 µM]
O=C(C[C@@H]1C[C@@H]2c3cc(NC(=O)NC4CCCC4)ccc3O[C@@H]2[C@H](CO)O1)NCc1cccc(F)c1,-5,11[16.7 µM]
O=C(C[C@@H]1C=C[C@@H](NC(=O)C2CC2)[C@@H](CO)O1)Nc1nccs1,-19,7[16.7 µM]

# Source: PubChem BioAssay (Broad Institute)

# This is a subset; the hit share may differ from the screen's.
